GALR2 agonist = agonists of human galanin receptor 2 (GALR2) | 140,000 compounds, 0.48% hits | O43603 | activation, %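 (tested at 5 µM)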 | GALR2-expressing cells, agonist activation read-out;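 active = above mean plus 3 SD of all compounds, about 5% in these data, not always enough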;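 also: 0% = vehicle buffer wells and 100% = reference agonist at full effect; tested in CHO reporter cells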
INS promoter inh = TRM-6 insulin promoter activity inhibition; TRM-6 cells (human fetal islet line), insulin promoter-eGFP reporter, imaging; reporter expression induced with tamoxifen; inhibition, % at 2 µM; 130,000 compounds, 0.9% hits; AID 1273;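 active = inhibition above the mean plus 3 SD, with well images judged a real hit on visual review, cut at about 60% in these data, passing the limit was not always enough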
PKD1 kinase inh = blocks activity of human protein kinase D1. Q15139. PKD1 kinase fluorescence polarization assay. inhibition, %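 (about 10 µM by stock and volumes)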. 200,000 compounds, 0.056% hits. AID 797;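 active = inhibition of 50% or more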;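 also: controls were vehicle for no effect and a reference inhibitor for full effect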
Target sequence (Q15139 whole entry, looked up): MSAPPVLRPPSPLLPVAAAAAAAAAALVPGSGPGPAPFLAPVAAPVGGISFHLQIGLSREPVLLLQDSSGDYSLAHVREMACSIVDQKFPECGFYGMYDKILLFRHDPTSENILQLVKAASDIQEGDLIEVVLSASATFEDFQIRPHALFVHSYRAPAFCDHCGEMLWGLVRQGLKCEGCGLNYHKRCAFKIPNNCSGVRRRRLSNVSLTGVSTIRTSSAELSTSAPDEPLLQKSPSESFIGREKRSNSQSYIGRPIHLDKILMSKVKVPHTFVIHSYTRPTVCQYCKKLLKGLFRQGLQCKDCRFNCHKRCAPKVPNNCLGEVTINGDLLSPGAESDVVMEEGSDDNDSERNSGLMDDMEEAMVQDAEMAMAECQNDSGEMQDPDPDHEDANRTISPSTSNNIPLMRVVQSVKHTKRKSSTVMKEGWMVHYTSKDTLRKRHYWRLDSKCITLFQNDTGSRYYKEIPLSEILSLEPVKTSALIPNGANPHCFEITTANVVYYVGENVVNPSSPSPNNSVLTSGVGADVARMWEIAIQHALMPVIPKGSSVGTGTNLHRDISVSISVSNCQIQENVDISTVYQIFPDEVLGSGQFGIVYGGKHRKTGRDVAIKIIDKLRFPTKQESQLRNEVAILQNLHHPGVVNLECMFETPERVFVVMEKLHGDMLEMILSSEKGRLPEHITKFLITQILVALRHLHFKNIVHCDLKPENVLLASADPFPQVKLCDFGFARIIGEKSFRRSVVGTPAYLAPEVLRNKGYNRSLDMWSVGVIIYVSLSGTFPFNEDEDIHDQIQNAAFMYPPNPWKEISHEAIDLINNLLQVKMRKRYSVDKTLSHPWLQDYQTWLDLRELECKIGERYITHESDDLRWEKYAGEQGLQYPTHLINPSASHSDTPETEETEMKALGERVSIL
RGS16-Gao = regulators of human RGS16-Galphao interaction. O15492+P09471. bead-based flow cytometry RGS16-Galphao binding, fluorescence; actives lie on both sides. binding response (% of control), % at 10 µM. 220,000 compounds, 0.38% hits. AID 1441;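 active = below 25% or above 175%, edge rows of some plates excepted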;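 also: Galphao activated by GDP with aluminum fluoride before binding; 100% = wells without compound and 0% = beads without RGS; some results beyond the cut were filed as inactive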
HSV augment = increases HSV replication in cells; HSV replication augmentation in cells, fold increase; maximum fold increase; 220,000 compounds, 0.005% hits;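 active = peak rise of 1.5-fold or more in the series; tested in PC3 cells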;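 also: first round at 10 µM; read as green reporter fluorescence; hits show the peak of a series up to 25 µM; 1 = signal of infected wells without compound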
INS promoter inh cell count = second read-out of INS promoter inh, no call of its own (marks repeat the call); normalized cell count, %; measured here: cell count, toxicity; reference of the scale not given here;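 cells exposed to compound for 48 h; stained nuclei by imaging scaled within each plate; lower means fewer cells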
HSV augment primary fold = recorded beside HSV augment, whose call it bears; fold increase; compound at 10 µM; measured here: primary screen fold increase 10 uM; tested in PC3 cells;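 GFP signal in the first replicate; 1 = infected wells without compound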
* hit, by the source's call; i = inactive; nt = not tested or not shown. Hits appear at their usual frequency. About 1.1% of those tested had a hit in this group.

The line under a structure holds: RGS16-Gao, HSV augment primary fold, HSV augment, GALR2 agonist, PKD1 kinase inh, INS promoter inh cell count, INS promoter inh
#1 Cc1cc(C)[n+](-c2ccc(F)cc2)c2[nH]c(=O)[nH]c(=O)c12
  97, 1, i, -1.1, 4, 64, -16
#2 CC(C)Cc1cc(C(=O)N2N=C(C(F)F)CC2(O)C(F)F)c2ccccc2n1 (stereo unspecified)
  111, 0.73, i, -2.7, 11, 113, 69
#3 O=S1(=O)Cc2cc3ccccc3cc2C1
  110, 0.93, i, nt, -8, nt, nt
#4 C=C(C)C1Cc2c(C)nn(-c3cccc4cccnc34)c2C1 (stereo unspecified)
  100, 1, i, nt, nt, nt, nt
#5 Cc1ccccc1OCC(=O)Nc1ccc2c(c1)n(C)c(=O)n2C
  103, 0.95, i, nt, 4, nt, nt
#6 OC(COCc1cccs1)CN1CCN(c2ccccn2)CC1 (stereo unspecified)
  162, 1.1, i, -1.4, 4, 109, -91
#7 COC(=O)c1ccc(NC(=S)N2CCN(Cc3ccccc3OC)CC2)cc1
  104, 1, i, nt, -8, nt, nt
#8 CCCCC(=O)OCC(=O)Nc1ccc(SC(F)F)cc1
  98, 1.4, i, nt, 0, 110, 6
#9 COc1ccc(C(=O)Nn2c(SCC(=O)c3ccccc3)nc3ccccc3c2=O)cc1
  102, nt, nt, -2.2, 0, 260, -40
#10 Cc1cc(Nc2ccc(Br)c(C)c2)n2nc(C)nc2n1
  101, 1.2, i, -0.7, -8, 100, 29
#11 COCCn1c(SCC(N)=O)nc2c(c1=O)SC(C)C2 (stereo unspecified)
  100, 0.84, i, -0.8, 10, 71, -40
#12 COCCn1c(=NC(=O)c2ccc(S(=O)(=O)N3CCc4ccccc4C3)cc2)sc2cc(OC)ccc21
  105, 0.97, i, 2.4, -6, 152, -38
#13 O=C1CC(C(=O)Nc2ccc(Br)cc2)S/C(=N\N=C\c2ccco2)N1 (stereo unspecified)
  98, 1, i, nt, nt, nt, nt
#14 CC(=O)Nc1ccc(OCC(O)CN2CCN(c3cc(Cl)ccc3C)CC2)cc1 (stereo unspecified)
  94, 0.82, i, -2.7, 6, 90, 12
#15 Cc1nn(C)cc1C1C2=C(CC(C)(C)CC2=O)OC2=C1C(=O)CC(C)(C)C2
  104, 0.95, i, -1.1, -10, 52, 12
#16 Cc1[nH]c2ccccc2c1C(=O)COC(=O)Cn1cnc2ccccc21
  98, 1, i, 0.5, 6, nt, nt
#17 COc1cccc(C2CC(c3ccccc3Cl)Nc3nc(N)nn32)c1 (stereo unspecified)
  112, 0.73, i, -2.0, -13, 101, 25
#18 COCCN=c1scc(C)n1/N=C/C1CC2C=CC1C2 (stereo unspecified)
  101, 0.89, i, nt, 5, nt, nt
#19 O=C(NC1(C(F)(F)F)N=C(c2ccccc2)NC1=O)c1ccc(Cl)cc1Cl (stereo unspecified)
  103, 0.96, i, -2.8, 5, nt, nt
#20 O=C(/C=C/c1cccc([N+](=O)[O-])c1)Nc1ccccc1N1CCOCC1
  99, 1, i, 0.8, 12, 87, 33
#21 CC(C)Oc1ccc(C(=O)NC2(C(F)(F)F)N=C3SCCN3C2=O)cc1 (stereo unspecified)
  106, 0.89, i, -2.1, 6, 121, -8
#22 O=C1Nc2ccc([N+](=O)[O-])cc2OC1CCN1CCN(Cc2ccccc2)CC1 (stereo unspecified)
  99, 0.95, i, nt, 4, nt, nt
#23 CC(C)=CC[N+]1(C)CCCCC1
  97, 0.99, i, -1.7, -6, nt, nt
#24 CCCCCCCCNC(=O)C(CCC(=O)OCc1ccccc1)NC(C)=O (stereo unspecified)
  105, 0.85, i, -0.6, 3, 108, -13
#25 COc1ccc(NC(=O)/C=C/c2cc(OC)c(OC)c(OC)c2)cn1
  104, 1, i, nt, 0, 136, -25
#26 O=c1oc(Nc2ccccc2Cl)nc2ccccc12
  101, 1, i, nt, 4, nt, nt
#27 COc1ccc(CC(=O)Nc2nc3ccccc3[nH]2)cc1
  106, 0.95, i, nt, nt, nt, nt
#28 CCCC1(C)Nc2ccccc2-c2nc3ccccc3n21 (stereo unspecified)
  103, 0.95, i, -2.8, -9, 195, 59
#29 CCOC(=O)c1[nH]cnc1C(=O)Nc1ccncc1
  107, 0.93, i, -1.4, 4, 140, 28
#30 CCOC(=O)C1CCCN(C(=O)COC(=O)c2cc(=O)c3ccccc3o2)C1 (stereo unspecified)
  105, 0.94, i, -1.1, 1, nt, nt
#31 CC(=O)c1ccc(NC(=O)CSc2ccc(-c3ccc4c(c3)OCO4)nn2)cc1
  102, 1.3, i, -0.6, -1, nt, nt
#32 Cc1c([N+](=O)[O-])nnn1-c1cc(Cl)cc(Cl)c1
  107, 0.96, i, nt, 3, 131, 27
#33 CC(C)CC(C(=O)Nn1cnnc1)N1C(=O)c2ccccc2C1=O (stereo unspecified)
  97, 1, i, -2.0, -2, 94, 12
#34 Cc1cc(C(=O)Nc2ncn(Cc3ccc(F)cc3)n2)ccc1[N+](=O)[O-]
  103, 0.95, i, nt, nt, nt, nt
#35 CSc1ncc(OCc2ccccc2)c(=O)[nH]1
  96, 0.97, i, nt, nt, nt, nt
#36 COc1ccc2cc(C#N)c(N3CCN(C(=O)c4ccccc4C)CC3)nc2c1
  97, 0.88, i, nt, 4, nt, nt
#37 O=C(/C=C/c1ccco1)NC(=S)Nc1nc(-c2ccc(Cl)cc2)cs1
  93, 0.96, i, -1.1, -1, nt, nt
#38 Oc1ccccc1-c1nnc(SCCN2CCOCC2)n1Cc1ccccc1
  96, 0.94, i, -1.3, -28, 56, -53
#39 COc1cc2cc(C(=O)Nc3ccccc3)c(N)nc2cc1OC
  130, 0.95, i, -1.1, -4, 126, -10
#40 COC(C[C@@H]1O[C@H]1[C@@H](O)COCc1ccccc1)OC
  103, 0.87, i, nt, nt, nt, nt

Compound profiles (already shown). Order of screens: RGS16-Gao | HSV augment primary fold | HSV augment | GALR2 agonist | PKD1 kinase inh | INS promoter inh cell count | INS promoter inh
Cc1c([N+](=O)[O-])nnn1-c1cc(Cl)cc(Cl)c1 across the screens: 107 | 0.96 | i | nt | 3 | 131 | 27
Cc1cc(C(=O)Nc2ncn(Cc3ccc(F)cc3)n2)ccc1[N+](=O)[O-] across the screens: 103 | 0.95 | i | nt | nt | nt | nt

Next section.
The line under a structure holds: RGS16-Gao, HSV augment primary fold, HSV augment, GALR2 agonist, PKD1 kinase inh, INS promoter inh cell count, INS promoter inh
#41 O=C(CSc1nc(-c2cccs2)cc(C(F)(F)F)n1)Nc1cc(OCC(F)(F)C(F)F)cc([N+](=O)[O-])c1
  106, 1.1, i, -2.9, -6, 60, 61
#42 O=C(/C=C\c1cccs1)c1c(O)ccc2ccc(=O)oc12
  80, 0.94, i, -2.6, -6, 66, 7
#43 O=C(Nc1c2c(nn1-c1ccc(F)cc1)CS(=O)C2)c1ccc(S(=O)(=O)N2CCOCC2)cc1 (stereo unspecified)
  111, 0.92, i, nt, 2, 84, 56
#44 Cc1cccc(C(=O)NCCN2CCOCC2)c1[N+](=O)[O-]
  100, 1.1, i, -0.7, -1, 103, 22
#45 N#CC1(NC(=O)CN2CCc3ccccc3C2)CCCC1
  100, 1.2, i, nt, -6, nt, nt
#46 COc1ccc2nc(NC(=O)Nc3cccc4ccccc34)sc2c1
  110, 0.83, i, nt, 0, 107, -17
#47 O=C(O)C1=C[C@H](c2ccc(Br)cc2)C[C@H](OCc2ccc(CO)cc2)O1
  93, 1.2, i, nt, -3, nt, nt
#48 CSCCC(NC(=O)c1ccco1)C(=O)OCc1cc([N+](=O)[O-])cc2c1OCOC2 (stereo unspecified)
  104, 0.96, i, nt, -1, 119, -17
#49 CC(C)c1nnc(NC(=O)CCC(=O)Nc2ccc(F)cc2)s1
  99, 0.99, i, -1.2, -13, nt, nt
#50 COC(=O)c1ccc(COc2ccc3c(C)c(C)c(=O)oc3c2)o1
  99, 1, i, -0.7, -10, nt, nt
#51 COC(=O)Nc1nc(C)c(C(=O)c2ccccc2)s1
  99, 0.8, i, -1.1, 3, 77, 9
#52 N=C1C(c2nc3ccccc3s2)=C(O)CN1NC(=O)c1ccccc1[N+](=O)[O-]
  95, 1, i, nt, -6, nt, nt
#53 CC1=C([N+](=O)[O-])C(c2ccccc2)C2=C(N1)c1ccccc1C2=O (stereo unspecified)
  105, 0.55, i, 0.0, 1, 67, -16
#54 Cc1cccc(NCCNc2cccc(C)c2)c1
  98, 0.79, i, -3.0, 0, 93, -3
#55 Cc1nc(-c2ccccc2)cc(=O)[nH]1
  83, 0.88, i, -0.2, -1, nt, nt
#56 Cc1ccc(-c2cc(NC(=O)CCl)n(-c3ccccc3)n2)cc1
  101, nt, nt, -0.9, -4, 126, 40
#57 COCCCN(C(=S)Nc1cc(Cl)cc(Cl)c1)C(C)c1ccccn1 (stereo unspecified)
  86, 0.88, i, nt, nt, nt, nt
#58 CC(=O)N1c2ccccc2Oc2cc3ccccc3cc21
  99, 1, i, -0.7, -1, nt, nt
#59 Cc1cc(NC(=O)CSc2nc3ccsc3c(=O)n2CCCC(=O)NCCc2ccccc2)no1
  107, 0.91, i, nt, 4, 49, -64
#60 O=C(Oc1ccc(-c2nnco2)cc1)N(c1ccccc1)c1ccccc1
  102, 0.78, i, -0.3, -8, 147, -68

Overlap with the part before: 7 entries, followed by the next part.
The line under a structure holds: RGS16-Gao, HSV augment primary fold, HSV augment, GALR2 agonist, PKD1 kinase inh, INS promoter inh cell count, INS promoter inh
#54 Cc1cccc(NCCNc2cccc(C)c2)c1
  98, 0.79, i, -3.0, 0, 93, -3
#55 Cc1nc(-c2ccccc2)cc(=O)[nH]1
  83, 0.88, i, -0.2, -1, nt, nt
#56 Cc1ccc(-c2cc(NC(=O)CCl)n(-c3ccccc3)n2)cc1
  101, nt, nt, -0.9, -4, 126, 40
#57 COCCCN(C(=S)Nc1cc(Cl)cc(Cl)c1)C(C)c1ccccn1 (stereo unspecified)
  86, 0.88, i, nt, nt, nt, nt
#58 CC(=O)N1c2ccccc2Oc2cc3ccccc3cc21
  99, 1, i, -0.7, -1, nt, nt
#59 Cc1cc(NC(=O)CSc2nc3ccsc3c(=O)n2CCCC(=O)NCCc2ccccc2)no1
  107, 0.91, i, nt, 4, 49, -64
#60 O=C(Oc1ccc(-c2nnco2)cc1)N(c1ccccc1)c1ccccc1
  102, 0.78, i, -0.3, -8, 147, -68
#61 CC1CN(CC(=O)N2CCc3[nH]c4ccccc4c3C2)CC(C)O1 (stereo unspecified)
  101, 0.95, i, -2.2, -4, 58, 45
#62 CCOc1ccc(N=C2SC(C(=O)Nc3ccccc3C#N)C(N)=C2C(=O)Nc2ccc(Cl)cc2)cc1 (stereo unspecified)
  99, 0.78, i, nt, -3, nt, nt
#63 COc1ccc(CCN=CC2=C(O)CC(C)(C)CC2=O)cc1
  94, 0.78, i, -0.6, -6, 71, 31
#64 COc1ccc(NC(=O)c2cn3c(nc4ccccc43)c(C#N)c2C)cc1
  102, 0.74, i, nt, nt, nt, nt
#65 C/C(=C(\C#N)C(=O)NCCCN1CCOCC1)N(C)C
  103, 0.92, i, -0.9, 8, 49, 0
#66 CCN1CCN(c2nc(Nc3cccc(C)c3)nc(N)c2[N+](=O)[O-])CC1
  108, 0.81, i, 0.6, 22, 55, -8
#67 COCCSc1nnc(NC(=O)C(C)(C)C)s1
  106, 0.91, i, 0.5, -4, 195, -13
#68 Cc1ccc(-c2nnn(CC(=O)N(CC(=O)NC3CCCC3)c3cnc4ccccc4c3)n2)o1
  101, 0.96, i, 0.2, -8, nt, nt
#69 CCN(CC)C(=O)Cn1c(=O)n(-c2ccccc2)c(=O)c2sccc21
  100, 0.75, i, nt, 1, nt, nt
#70 Cc1ccccc1-n1c(SCc2cccc(F)c2)nc2[nH]ncc2c1=O
  44, 0.9, i, -2.7, 8, 47, -9
#71 CNC(=S)NNC(=O)COc1ccc(C)c(C)c1
  86, 0.9, i, 0.2, -5, 49, 4
#72 Cc1ccc(C)c(/C=N/Nc2nc3ccccc3c(=O)n2O)c1
  92, 0.97, i, nt, nt, nt, nt
#73 Cc1csc(NC(=O)/C=C/c2ccc(C)o2)n1
  99, 1.2, i, -2.7, 4, nt, nt

Screens from PubChem.
